eIF4H inh: inhibitors of RNA binding by human eIF4H | Q15056 | eIF4H fluorescence polarization binding assay | inhibition, % at 35 µM | 0.94% of 290,000 active | AID 2012;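 active = 50% or more with normal probe brightness, or confirmed in later tests; inconclusive = above 50% with abnormal brightness, or retests that disagree; inactive = below 50% or failed in later tests; about a fifth of its hits are not listed in these tables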;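 also: calls also rest on retests at 20 µM and on dose response follow-up; 0% = protein and probe with vehicle and 100% = probe without protein; strong numbers were not always called active; many hits fall short of the cut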
MT1-MMP act inh: inhibitors of human MT1-MMP activation; HT1080 RFP-PRO-GFP cells, GFP/RFP ratio fluorescence, overnight; percent of plate control window, DMSO zero; GFP/RFP ratio change, % at 20 µM; 0.061% of 360,000 active; AID 651647;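 active = GFP/RFP ratio change of at least 30% with cell ATP level not reduced by more than half and red fluorescence within 50% of control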; also: strong numbers were not always called active
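Assay system: HT1080 RFP-PRO-GFP cells | Dosing: 20 µM single dose, 1% DMSO | Incubation: Cells overnight before dosing, compound overnight, 37 °C, 5% CO2 | Evaluation: GFP/RFP fluorescence ratio | Control set: DMSO-only wells and HT1080 RFP-L50D-GFP cell wells as references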
CSC inhib: blocks cancer stem cells; cancer stem cell-like cells viability, luminescence; inhibition, % at 7.5 µM; 1.1% of 300,000 active;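 active = mean at 75% or more and at least half the replicates too; inconclusive = mean and replicates disagree; tested in HMLE shEcad cells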;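 also: 0% = median of negative and 100% = median of positive control wells; the first replicate is given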
PABP polyA inh: PABP-poly(A) binding inhibition | inhibition, % at 35 µM | P11940 | PABP-poly(A) RNA binding, fluorescence polarization | 1% of 290,000 active;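 active = 50% or more with normal probe brightness, or confirmed in later tests; inconclusive = above 50% with abnormal brightness, or retests that disagree; inactive = below 50% or failed in later tests; about a fifth of its hits are not listed in these tables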;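 also: calls also rest on retests at 20 µM and on dose response follow-up; controls were probe without protein and protein plus probe with vehicle; some compounds called inactive have numbers as strong as hits; many hits fall short of the cut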
Target sequence (P11940 whole entry, looked up): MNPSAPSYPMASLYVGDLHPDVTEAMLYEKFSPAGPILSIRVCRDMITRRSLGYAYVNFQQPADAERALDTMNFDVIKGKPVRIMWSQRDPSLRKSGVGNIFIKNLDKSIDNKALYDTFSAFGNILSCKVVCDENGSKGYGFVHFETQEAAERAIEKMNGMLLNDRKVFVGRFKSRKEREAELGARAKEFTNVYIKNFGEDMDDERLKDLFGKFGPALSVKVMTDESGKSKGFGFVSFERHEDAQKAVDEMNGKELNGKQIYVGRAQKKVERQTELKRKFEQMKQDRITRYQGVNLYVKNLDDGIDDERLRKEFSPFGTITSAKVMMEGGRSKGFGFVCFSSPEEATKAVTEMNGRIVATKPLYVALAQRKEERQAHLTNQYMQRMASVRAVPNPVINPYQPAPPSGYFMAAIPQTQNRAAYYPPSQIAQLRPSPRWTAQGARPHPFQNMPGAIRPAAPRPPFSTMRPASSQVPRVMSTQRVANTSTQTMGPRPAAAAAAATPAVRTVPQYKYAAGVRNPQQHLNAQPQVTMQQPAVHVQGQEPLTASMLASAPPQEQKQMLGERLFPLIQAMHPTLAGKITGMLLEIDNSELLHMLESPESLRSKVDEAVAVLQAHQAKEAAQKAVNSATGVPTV
Yeast UUG start: yeast start codon fidelity modulation | activity score, % at 18.7 µM | 0.13% of 350,000 active | S. cerevisiae UUG-firefly luciferase reporter, luminescence/redox ratio;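 active = replicate mean at a twofold rise or more, about +100% in these data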;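 also: firefly luciferase made from a UUG start codon reports start codon fidelity; reporter light over untreated wells divided by growth signal over untreated wells; some hits fall short of that in this replicate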
Rce1 inh: blocks yeast Ras-converting enzyme | Q03530 | yeast membranes, quenched prenylated peptide cleavage fluorescence | calls only | 0.27% of 290,000 active;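 active = fall in fluorescence gain of 50% or more versus controls, with final raw signal at or below 3038400; inconclusive = same 50% fall but final raw signal above 3038400; inactive = fall in fluorescence gain under 50%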;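 also: plate controls were neutral control wells for no effect and wells lacking membranes for full effect; tested at 10 µM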
HIV Env fusion: blocks HIV Env-driven cell-cell fusion; HeLa-JRFL Env/CEM21 cell fusion, luciferase; inhibition, % at 12.3 µM; 1.1% of 360,000 active; AID 651610;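 active = mean replicate inhibition score of at least 50 and every replicate individually at or above 50; inconclusive = only one of the two criteria met; inactive = mean below 50 and not all replicates reaching 50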;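 also: 0% = plate neutral controls and 100% = maraviroc near 300 nM; one replicate is shown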
eIF4H inh retest: further read-out of eIF4H inh, marked with its call; inhibition, %; compound at 20 µM; confirmation average;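 mean of two retest wells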
PABP polyA inh retest: also measured in PABP polyA inh; calls as there; inhibition, %; compound at 20 µM; confirmation repeats;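 mean of two retest wells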
MT1-MMP act inh RFP: second read-out of MT1-MMP act inh, no call of its own (marks repeat the call); RFP signal change, %; measured here: RFP expression control read;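 0 = vehicle wells; hits needed this value within 50% of zero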
* marks the source's active call; other numbers are inactive results; i = inactive; ? = inconclusive; / = no result given; & = joins results of further samples.

SMILES	eIF4H inh	MT1-MMP act inh	MT1-MMP act inh RFP	CSC inhib	PABP polyA inh	Yeast UUG start	Rce1 inh	HIV Env fusion	others
Cc1noc(C)c1S(=O)(=O)N(C)C[C@H]1OCCCC[C@@H](C)Oc2ccc(NS(=O)(=O)c3cn(C)cn3)cc2C(=O)N([C@H](C)CO)C[C@@H]1C	/	4	6	/	/	8&9	/	9
O=C(Nc1nc(-c2ccc(F)cc2)cs1)c1cccc(N2C(=O)CCC2=O)c1	-1	3	-4	3	-6	-12	i	-2
Oc1ccc(-n2nnnc2SCc2ccccc2Br)cc1	2	0	-2	/	0	-20	i	/
O=C(CSCc1cccs1)N1CCCC1	-10	3	9	-3	-13	-13	i	/
CCN(CC)C(=O)CSc1nc2cc3c(cc2c(=O)n1Cc1ccc(OC)cc1)OCO3	4	3	-2	-1	7	-10	i	20
COc1cccc(Nc2nnc(SCC(=O)N(CC(C)C)CC(C)C)s2)c1	6	-1	-10	-13	-8	/	/	/
C=CCN1C(=O)S/C(=C/c2ccc(Sc3nc4ccccc4[nH]3)o2)C1=O	-16	4	-15	4	-4	-27	i	20
COC(=O)CNC(=O)CSc1nnc(-c2ccc(OC)cc2)n1CC(C)C	4	8	4	1	7	-15	i	-23
CCS(=O)(=O)c1nn2c(N)c(/C=C3/C=CC(=O)C(OC)=C3)c(=O)nc2s1	-6	-84	14	6	-4	/	i	-9
Cc1ccc(C2(C)NC(=O)N(CC(=O)Nc3cc(S(=O)(=O)N4CCCCC4)ccc3OC(C)C)C2=O)cc1 (stereo not given)	/	0	-3	-12	/	-1	i	24
O=C(CCc1ccccc1)Nc1c(F)cccc1F	/	4	4	-8	/	-13	/	-73
CCc1cc2c(-c3ccccc3)cc(=O)oc2cc1OC(C)C(=O)NCC1CCC(C(=O)O)CC1 (stereo not given)	4	5	5	-9	7	4	i	/
Cc1cccc(NC(=O)Cn2nnc(C(=O)Nc3ccc(F)c(Cl)c3)c2N)c1	-9	0	-1	6	-8	-7	i	4
O=C(c1ccc2ccccc2n1)N1CCN(c2ccccc2Cl)CC1	4	3	-1	-4	-3	/	i	-11
COc1ccc(N(CC(=O)Nc2cc(OC)c(OC)cc2C(=O)O)S(=O)(=O)c2c(C)noc2C)cc1	-6	1	2	-3	5	-2	i	1
N#CC1=C(N)Oc2n[nH]c(-c3ccccc3)c2C1c1ccncc1 (stereo not given)	-4	7	-3	/	18	-20	i	-5
O=C(CN1C(=O)c2ccccc2C1=O)NC1CCC(O)CC1 (stereo not given)	/	-1	-2	11	/	-5	/	-3
CC(=O)Nc1ccc(NC(=O)C(C)OC(=O)CNC(=O)c2cccs2)cc1 (stereo not given)	/	-1	0	9	/	/	i	-2
S=C(NCCc1ccccc1)NCCc1ccccc1	-2	-4	3	10	0	/	i	6
O=C(NNC(=O)c1ccc[nH]1)c1cc(Cl)cc(Cl)c1	-6	0	4	2	3	-4	i	2
CCOc1cc(NC(=O)CCl)c(OCC)cc1NC(=O)CCl	-4	5	-5	-3	9	/	i	19
NS(=O)(=O)c1ccc(CCN2C(=O)/C(=C\c3ccc(Cl)cc3)SC2=S)cc1	16	4	2	35	0	-17	i	37
CC(C)OP(=O)(OC(C)C)C(NC(=O)c1ccccc1Br)C(N)=O (stereo not given)	-5	-1	2	-3	-14	/	i	2
CCNC(=O)C1(C)CCN(C(=O)c2ccc(OC)cc2)C1 (stereo not given)	/	2	3	/	/	-24	/	-5

Of the compounds above, these have bromine:
SMILES	eIF4H inh	MT1-MMP act inh	MT1-MMP act inh RFP	CSC inhib	PABP polyA inh	Yeast UUG start	Rce1 inh	HIV Env fusion	others
Oc1ccc(-n2nnnc2SCc2ccccc2Br)cc1	2	0	-2	/	0	-20	i	/
CC(C)OP(=O)(OC(C)C)C(NC(=O)c1ccccc1Br)C(N)=O (stereo not given)	-5	-1	2	-3	-14	/	i	2

Remaining list, next part
SMILES	eIF4H inh	MT1-MMP act inh	MT1-MMP act inh RFP	CSC inhib	PABP polyA inh	Yeast UUG start	Rce1 inh	HIV Env fusion	others
Cc1ccccc1C(C(=O)NC1CCCC1)N(C(=O)CNC(=O)c1ccco1)c1cccnc1 (stereo not given)	-1	/	/	0	-15	/	i	/
CC1=CN2CC(O)CN=C2C=C1 (stereo not given)	1	-1	3	-11	8	-11	i	-10
CC(C)(C)NC(=O)NC(=O)COC(=O)Cc1coc2ccc3ccccc3c12	-4	3	3	-3	0	-6	i	7
C=CCSc1nnc(N2C(=O)C(O)=C(C(=O)c3ccco3)C2c2ccccc2F)s1 (stereo not given)	26	-27	2	-7	28	-10	i	-2
Cc1ccc(C)c(Oc2cc(NC(=O)CCCn3nc(C)c([N+](=O)[O-])c3C)cc([N+](=O)[O-])c2)c1	-3	-7	-31	8	0	/	i	/
Cc1ccc(S(=O)(=O)Nc2ccc3c(c2)C(=O)N([C@H](C)CO)C[C@H](C)[C@@H](CN(C)C(=O)Nc2ccc(C(F)(F)F)cc2)O3)cc1	/	11	-1	/	/	-1	/	-13
CCCCN(C(=O)CCCc1nc2ccccc2c(=O)[nH]1)c1c(N)n(CC(C)C)c(=O)[nH]c1=O	/	-4	2	-2	/	-15	/	/
CN(C)C(=O)c1ccc(NC(=O)CSc2nnc(-c3ccc4c(c3)OCO4)o2)cc1	/	4	0	/	/	-12	/	-12
Cc1ccc(S(=O)(=O)Nc2cccc(C(=O)NCc3ccccn3)c2)cc1F	/	5	1	-3	/	-21	i	/
O=C(Nc1cccc(-c2ccc(N3CCOCC3)nn2)c1)c1ccc(Cl)cc1	/	3	5	/	/	-7	i	-44
CC(=O)N1CCN2C(=O)C1CCCC(=O)c1cc(C(C)C)ccc12 (stereo not given)	3	0	2	/	2	-9	i	/
CC1CCCC(C)N1C(=O)CN1C(=O)C(C)(C)Oc2ccc(C(=O)NC3CCCC3)cc21 (stereo not given)	7	1	-3	-12	4	12	i	?
CC(C)(C)/C=N/NC(=O)CNC(=O)c1ccc2c(c1)OCCO2	-8	1	3	-17	66	/	i	-14	eIF4H inh retest=-3;PABP polyA inh retest=16
O=C(Nc1ccccc1)OCc1cc(-c2ccc(Cl)cc2)on1	-11	3	7	-5	-2	/	i	/
COc1cccc(CN2CCN(Cc3ccccc3C(F)(F)F)CC2)c1	9	0	10	-13	12	-18	i	2
NC(=O)CSc1nnc(Cn2cnc3ccccc32)o1	4	0	2	-4	18	/	i	-16
C=CCN(CC=C)C(=O)COn1nnc2ccc(S(=O)(=O)N3CCOCC3)cc21	/	1	0	13	/	-2	i	3
Cc1ccc(/C=N/NC(=O)c2ccncc2)s1	-2	2	3	-3	-12	-8	i	-3
Cc1ccc(NC(=S)Nc2ccc(OC(F)F)c(Cl)c2)cc1F	-11	-1	-3	33	1	/	/	-48
CC(C)Cc1nnc(NC(=O)C23CC4CC(CC(C4)C2)C3)s1	7	-5	-9	37	6	/	i	-2
O=Nc1ccc(NOC(=O)c2ccccc2Br)cc1	17	-1	0	10	9	/	i	21
Cc1cccc(OCC(=O)N/N=C/c2cccn2C)c1	-7	6	1	14	-8	-6	i	62*
Cc1[nH]c(=S)c(C#N)c(C)c1CC(=O)c1ccc(Br)cc1	-12	-3	-5	-7	-9	-25	i	-12
O=C(O)CCCNC1=NCCC1	-7	4	1	-7	0	-18	i	/
COCCCNc1nc2ccccc2nc1NS(=O)(=O)c1cc(Cl)ccc1Cl	-12	3	-8	33	6	-7	i	2
CCn1ncc(C2=NOC(C(=O)NCCc3ccccc3)C2)c1C (stereo not given)	0	14	4	4	-8	1	i	-35
O=C(Nc1ccc2oc(-c3ccncc3)nc2c1)c1ccco1	20	3	3	-21	12	-9	/	17
Cc1ccc(-c2ccc(C(=O)Nc3ccccc3)o2)c2ccccc12	-6	0	0	54	2	-14	i	7
CC(C)(C)S(=O)N1Cc2cc(CO)ccc2[C@@H]1CCO (stereo not given in full)	/	0	6	/	/	-12	/	3
COCCNC(=S)N/N=C(\C)c1cccc(OC)c1	2	0	2	-7	-3	-41	i	-6
O=C(c1ccc(N2CCOCC2)nc1)N1CCCCC1	-8	4	3	-4	-6	-7	i	/
CC(OC(=O)CCc1cc(C(C)(C)C)c(O)c(C(C)(C)C)c1)C(=O)NC1CC1 (stereo not given)	/	-7	-3	-6	/	-1	i	/
CC1=CC(C)C2C(=O)N(c3ccccc3)NC(=O)C2C1 (stereo not given)	-5	-1	4	-3	17	-12	i	6
CN(CC(=O)NCc1ccc2c(c1)OCO2)S(=O)(=O)c1ccc(Br)s1	-5	-1	7	14	4	-7	i	/
O=C(Nc1ccc(CN2CCCCC2)cc1)Nc1ccc(Br)cc1Cl	-8	-6	-6	/	10	-14	i	18
O=C(CN1CCN(c2ccc(F)cc2)CC1)NCc1ccc(F)cc1	-6	4	3	2	-3	-15	i	19
CNc1ccccc(-c2ccc3ccccc3n2)c1=O	?	-28	22	9	-5	4	i	-11
Cc1noc(NS(=O)(=O)c2ccc(NC(=O)CCCOc3ccc(Cl)cc3Cl)cc2)c1C	8	2	3	-3	10	-12	i	-9
COC(=O)C1=C(C(=O)OC)[C@@H]2N(C)c3ccccc3[C@@]23C[C@@H](CO)N(C(=O)NCCBr)C3=N1	-12	-2	-3	3	-6	-29	i	38
O=C(NCc1ccc(N2CCCC2=O)cc1)Nc1ccccc1	2	6	4	-7	2	/	i	/
Cc1ccccc1C(=O)Nc1ccccc1NC(=O)c1ccccc1C	-8	-1	3	-16	-7	-12	i	12
O=c1[nH][nH]c2cc(=O)n(-c3ccc(Cl)cc3)nc12	59	8	2	5	-5	-18	i	0	eIF4H inh retest=14;PABP polyA inh retest=4
COCc1cc(=O)[nH]c(=S)[nH]1	1	-4	3	-10	-4	-9	i	3
Cc1ccc(N2CCN(CCCCN3C(=O)C4CCCN4C3=O)CC2)cc1 (stereo not given)	-11	0	2	0	8	/	i	/
O=C1C=C(c2ccc(-c3ccccc3)cc2)C[C@@H](c2ccc(Cl)cc2)C1	/	4	3	2	/	-4	/	2
CC(C)(C)c1ccc(S(=O)(=O)NC(=O)C2(C)CCN2C(=O)Cc2ccc(Cl)cc2Cl)cc1 (stereo not given)	/	8	0	/	/	-10	/	-12
O=C(COC(=O)CCC(=O)c1ccc(F)cc1)Nc1ccc2[nH]c(=O)[nH]c2c1	/	5	4	-7	/	-10	i	1
Oc1oc(-c2ccccc2)nc1C=NCc1ccncc1	7	3	2	-20	7	-13	/	-15
COc1ccc2c(c1)CCc1cn3nc(C)cc3nc1-2	3	-5	-1	0	12	9	i	6
O=C(C1CCCN(S(=O)(=O)c2cccc3nonc23)C1)N1CCN(c2ccccc2)CC1 (stereo not given)	-3	3	-6	-4	-4	1	i	/
Cc1nn(C(C)C(=O)Nc2ccccc2Cl)c(=O)c2nn(-c3ccccc3)c(C)c12 (stereo not given)	0	-2	-1	-11	0	9	i	0
Cc1ccc(C)c(OCc2cc(C(=O)NC3CCOC(C)(C)C3)no2)c1 (stereo not given)	1	0	-6	1	-7	-5	i	-88
CCOC(=O)c1[nH]c(COC(=O)c2ccccc2NC(=O)c2ccco2)c(C(=O)OCC)c1C	-8	-5	3	2	-3	-20	i	-80
CCCCCC(=O)Nc1ccc(N2CCN(C(=O)CCC)CC2)cc1	-4	-4	0	17	-7	-5	i	/
O=C(Nc1nnc(SCc2cccnc2)s1)C1CC(=O)N(c2ccccc2)C1 (stereo not given)	-2	1	-1	-10	8	-11	i	-5
COC(=O)c1ccc2nc(-c3ccco3)c(Cc3ccc(C)cc3)n2c1	/	-6	-6	/	/	-19	/	1
